High-throughput results: PubChem, National Center for Advancing Translational Sciences (NCATS)
AmpC nodet inh: Promiscuous and Specific Inhibitors of AmpC Beta-Lactamase (assay without detergent). P00811. AmpC nitrocefin hydrolysis, absorbance 480 nm, no detergent; potencies from a single point are estimates. Potency, µM (doses to about 28.7 µM), for inactives: top-dose activity change, negative = inhibition. actives 1.8% (n = 71,000). AID 585, 2007; active = falling curve, for most hits resting on a single point; inconclusive = weak or doubtful change; inactive = flat or rising curve; further: % of control where 0% means no effect; about half of the hits show no inhibition at the top dose; a quarter of the inactives give rising signals
Target sequence (P00811 whole entry, looked up): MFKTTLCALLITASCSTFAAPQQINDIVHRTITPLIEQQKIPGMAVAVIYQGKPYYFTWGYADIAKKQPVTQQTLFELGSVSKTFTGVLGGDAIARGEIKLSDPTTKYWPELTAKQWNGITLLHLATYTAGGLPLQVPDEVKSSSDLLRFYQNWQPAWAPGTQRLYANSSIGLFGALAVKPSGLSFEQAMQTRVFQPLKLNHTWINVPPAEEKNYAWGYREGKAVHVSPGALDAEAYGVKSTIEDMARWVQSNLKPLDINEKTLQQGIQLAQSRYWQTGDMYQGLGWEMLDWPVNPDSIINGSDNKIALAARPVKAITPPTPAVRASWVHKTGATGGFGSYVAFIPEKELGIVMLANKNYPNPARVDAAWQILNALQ
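AmpC, 20 mM phosphate pH 7.0; 15 min cpd preinc, RT; start with nitrocefin (800 uM stock); A480 kinetic read, 20 s intervals, 4 min. No-enzyme wells = negative control.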
Active calls of the source: *; ? = inconclusive; & = joins results of further samples; [ ] = another dose, or the depositor's remark. Potency means the concentration at half of the fitted maximal effect. This is a subset; the hit share may differ from the screen's.

SMILES	AmpC nodet inh
C[C@@H](CCc1ccccc1)NC[C@H](O)c1ccc(O)c(C(N)=O)c1	-9%[12.8 µM]
Cc1cccc(NC(=O)CSc2nnc(-c3ccccc3)n2N)c1	-3%
COC(=O)c1cc(NC(=O)C2COc3ccccc3O2)cc(C(=O)OC)c1 (stereo not drawn)	20%
CCN1C(=O)CSC1=NC1C2CC3CC(C2)CC1C3 (stereo not drawn)	15%
O=S1(=O)CC(NCc2ccccc2)C(Nc2ccccc2)C1 (stereo not drawn)	2%
c1ccc2nc(C3=NCCN3)ccc2c1	-3%&-17%
CCN1CCN(C(=O)CN(Cc2ccccc2)S(C)(=O)=O)CC1	1%
COc1cccc(NC(=O)CSc2nnc(-c3cccs3)n2C)c1	3%
Oc1c(C(c2cccs2)N2CCOCC2)sc2ncnn12 (stereo not drawn)	60%
CCN1CCN(Cc2c(O)ccc3c(=O)c(-c4ccc(OC)c(OC)c4)c(C(F)(F)F)oc23)CC1	52%
CCOC(=O)C1CCN(Cc2cn[nH]c2-c2ccc(C)cc2)CC1	4%
Cc1ccc(CNC(=O)CCCn2c(=O)c3ccccc3n(CC(=O)NCc3ccco3)c2=O)cc1	2%
O=c1c(-c2ccc(Cl)cc2)nc2cnc(Nc3ccccc3)nc2n1C1CC1	-9%
COC(=O)C1[C@H]2C(=O)N(Cc3cccs3)C[C@]23C=C[C@H]1O3 (stereo partly drawn)	-5%
O=C1CC(C2CCCO2)C(=O)N1c1cccc(Cl)c1 (stereo not drawn)	3%
Cn1c(N2CCC(C(N)=O)CC2)nc2c1c(=O)n(Cc1ccc(Br)cc1)c(=O)n2C	102%
CCN(C(=O)COC(=O)C(Cc1ccccc1)N1C(=O)c2ccccc2C1=O)C1CCS(=O)(=O)C1 (stereo not drawn)	117%
c1ccc(Cn2nnc3cnccc32)cc1	-1%
Brc1ccc(-c2nc3ccccc3s2)s1	-17%
COc1ccc2[nH]c(=O)c(CN(Cc3ccco3)Cc3nnnn3Cc3ccccc3)cc2c1	16%
Cc1cccc(N2CCN(C(=O)C3CCCN(S(=O)(=O)c4cnc[nH]4)C3)CC2C)c1 (stereo not drawn)	80%
CCN(c1ccc(C(O)(C(=O)OC)C(F)(F)F)cc1)S(=O)(=O)c1ccccc1 (stereo not drawn)	-3%
COC(=O)c1ccc(CSc2ncnc3sc(C)c(C)c23)o1	8%
CN(C)S(=O)(=O)c1ccc2c(c1)nc(CCC(=O)NCC1CCCCC1)n2C	51%
O=S1(=O)c2cccc3cccc(c23)N1Cc1ccc(-c2nnco2)cc1	12%
COC(=O)[C@@]1(Cc2ccc(OC)cc2)[C@H]2c3cc(C(=O)N4CCCC4)n(Cc4cc(F)cc5c4OCOC5)c3C[C@H]2CN1C(=O)c1ccccc1	136%
Nc1ccc(-c2ccc(N)c(Cl)c2)cc1Cl	?
CCOC(=O)C1CC=C(Cl)CC1C(=O)Nc1nccs1 (stereo not drawn)	-1%
Cc1ccc([N+](=O)[O-])cc1C	1%
Cc1cccc(N2C(=O)CC(N(O)c3ccccc3)C2=O)c1 (stereo not drawn)	7%
CSc1ncc(C(=O)O)n1-c1ccc(F)cc1	-7%
O=S1(=O)[C@H]([C@H]2CC3c4ccccc4C2c2ccccc23)[C@@H](N2CCCCC2)[C@@H]1c1ccccc1	-1%[5.75 µM]
CN1CCC(n2[nH]c(-c3ccccc3)c(Cc3ccccc3)c2=O)CC1	8%[5.75 µM]
COc1ccc(C2=NOC(C(=O)NC3CCCCC3)C2)cc1OC (stereo not drawn)	62%
COc1ccc(C(=O)N2CCC[C@@]3(CCN(Cc4cc(C(F)(F)F)cc(C(F)(F)F)c4)C3)C2)cc1	30%
COc1ccc(-n2c(SCC(=O)Nc3ccc4c(c3)OCO4)nc3ccccc3c2=O)cc1	-17%
CCc1nnc(NC(=O)CSc2nnc(Cc3ccccc3)n2Cc2ccccc2)s1	46%
COc1ccc(-c2nc3ccccc3c(=O)n2CCCN2CCOCC2)cc1	41%
Cc1ccc(-c2nnc(N3CCOCC3)c3ccccc23)cc1S(=O)(=O)NCC1CCCO1 (stereo not drawn)	99%
COc1cc(NC(=O)c2ccco2)c(OC)cc1NC(=O)CCC(=O)Nc1cc(C)ccc1C	114%

As a short view, some entries already given:
SMILES	AmpC nodet inh
COc1ccc(-c2nc3ccccc3c(=O)n2CCCN2CCOCC2)cc1	41%
Cc1ccc(-c2nnc(N3CCOCC3)c3ccccc23)cc1S(=O)(=O)NCC1CCCO1 (stereo not drawn)	99%
COc1cc(NC(=O)c2ccco2)c(OC)cc1NC(=O)CCC(=O)Nc1cc(C)ccc1C	114%

More records follow:
SMILES	AmpC nodet inh
O=C(O)CCN1C(=O)C(=C2CCCCCC2)SC1=S	-2%
O=C(CN1C(=O)C2C3C=CC(C3)C2C1=O)N1CC(=O)N(CCc2ccccc2)C(=O)C1 (stereo not drawn)	33%
O=C(O)C1C2C=CC(C2)C1C(=O)NCCc1ccncc1 (stereo not drawn)	5%
COc1ccc(OC)c(NC(=O)CSc2nnc(CNc3ccc(F)cc3)o2)c1	27%
Cc1ccc(Cn2ccc(NC(=O)c3cc(-c4cccc(Cl)c4)on3)n2)cc1	-25%
O=c1c2cnn(-c3ccccc3)c2ncn1Cc1ccccc1	-10%
N#Cc1nc(COc2ccc(F)cc2)oc1N1CCN(Cc2ccccc2)CC1	49%
CCOC(=O)CNC(=O)CSc1nnc(Cn2c(=O)sc3ccccc32)n1C	8%
Cc1cc(C)nc(-n2nc(C)cc2NC(=O)c2ccc3c(c2)OCO3)n1	-3%
COc1ccccc1C(c1nnnn1Cc1ccccc1)N1CCN(c2nc3ccccc3s2)CC1 (stereo not drawn)	13%
CCCC(C)C(=O)Nc1ccc(Cl)cn1 (stereo not drawn)	11%
Cc1ccc(OCC(=O)n2cnnc2N)c(C)c1	14%
O=C(CSc1ncn[nH]1)c1ccc2c(c1)OCCO2	-15%
C=Cn1nc(C)c2ccccc2c1=O	0%
CC(O)c1cccc(NC2=CC(=O)CC(C)(C)C2)c1 (stereo not drawn)	-3%
O=C(O)c1cccc(Cl)c1	-8%
CC(=O)Nc1ccc(NC(=O)CN2CCCC(C)C2)c(Cl)c1 (stereo not drawn)	3%
O=C(O)C(Cc1ccccc1)n1cnnn1 (stereo not drawn)	-9%
CCCc1nc2ccccc2c(C(=O)OCc2nnc(-c3cc(OC)c(OC)c(OC)c3)o2)c1CC	124%
COc1ccc(-c2ccc(OC)cc2C(=O)O)cc1	-3%

Retrieved one by one from the entries so far:
SMILES	AmpC nodet inh
CCOC(=O)CNC(=O)CSc1nnc(Cn2c(=O)sc3ccccc32)n1C	8%
O=c1c2cnn(-c3ccccc3)c2ncn1Cc1ccccc1	-10%
COc1ccc(-c2ccc(OC)cc2C(=O)O)cc1	-3%
O=C(O)C1C2C=CC(C2)C1C(=O)NCCc1ccncc1 (stereo not drawn)	5%
O=C(CSc1ncn[nH]1)c1ccc2c(c1)OCCO2	-15%
CCCC(C)C(=O)Nc1ccc(Cl)cn1 (stereo not drawn)	11%

Continued:
SMILES	AmpC nodet inh
C=CCn1cnc2c(c1=O)c1nc3ccccc3nc1n2-c1ccccc1	62%
NCCNC[C@H](O)CO	-14%[5.75 µM]
O=C(Nc1ccccc1)c1ccccc1OCC(O)CN1C(=O)c2ccccc2S1(=O)=O (stereo not drawn)	?
CCNc1nc(N2CCOCC2)nc(N(c2ccccc2)c2ccccc2)n1	47%
Cc1ccc(S(=O)(=O)N2CCOCC2)cc1C(=O)NCc1ccc(F)cc1	30%
COCCCNC(=O)Cn1nnc(-c2ccc(NC(=O)c3ccccc3OC)cc2)n1	55%
O=C1Nc2ccccc2SC(c2ccccc2)C1O (stereo not drawn)	13µM*[single pt active]
CC1(C)Cn2c(nnc2-c2cccc(O)c2)S1	3%
CCS(=O)(=O)N1CCN(S(=O)(=O)c2ccc(F)cc2)CC1	-6%
CCn1c(/C=N/n2cnnc2)nc2ccccc21	-5%
O=C(CSc1ncccn1)c1ccccc1Br	-13%
CCOC(=O)C1=C(C)NC(=O)CC1c1cc2c(cc1Br)OCO2 (stereo not drawn)	17%
Cc1ccc2cc(C(c3nnnn3C3CCCC3)N(Cc3cccnc3)Cc3ccco3)c(=O)[nH]c2c1 (stereo not drawn)	83%
Cn1c(SCC(=O)c2ccc(F)cc2)nc2cccnc21	24%
O=C(Nc1ccc2nc(-c3ccco3)[nH]c2c1)c1ccco1	-5%
CCC(c1nnnn1Cc1ccc2c(c1)OCO2)N1CCN(c2ccccc2)CC1 (stereo not drawn)	50%
CC(C)CC(=O)Nc1ccccc1N1CCOCC1	-13%
COC(=O)[C@@H]1C[C@H]1[C@@H](NC(=O)c1ccccc1)c1ccccc1	14%
COc1ccc(S(=O)(=O)N2CCCN(CC(=O)Nc3ccc(OC)c(Cl)c3)CC2)cc1	60%
COC(=O)c1ccc(Cn2cc(Cl)cn2)cc1	-5%
O=C(CCN1CCc2ccccc2C1)Nc1ccccc1	-5%
CCc1c(C(=O)Nc2ncn(Cc3cccc(C)c3)n2)csc1C	8%
O=C(c1cc2nc(-c3ccccc3)cc(C(F)(F)F)n2n1)N1CCCC1	26%
COc1ccc(S(=O)(=O)Cc2ccc(C(=O)NCc3cccnc3)o2)cc1	4µM*[single pt active]
Cc1cc(NC(=O)CSc2nc(C(C)C)nc3c2c(=O)n(C)c(=O)n3C)no1	6%
Nc1nc2n(n1)C(c1ccc(Cl)cc1)CC(c1ccc(F)cc1)N2 (stereo not drawn)	76%
Cc1ccccc1C(=O)Nc1ccc(S(=O)(=O)N2CCN(C)CC2)cc1	16%
O=C(O)/C(=C\c1ccccc1)c1ccccc1	-4%[5.75 µM]
CC(=O)N1CCC[C@@]2(CCN(C(=O)Nc3cccc(C#N)c3)C2)C1	-2%
Oc1ccc(-c2nnc(-c3ccc(O)cc3)nn2)cc1	-3%
CCOC(=O)c1c(N)sn(-c2ccccc2C)c1=S	4%
O=C(CN1C(=O)CSC1=O)Nc1ccc(N2CCOCC2)cc1	-7%
O=S(=O)(c1cccs1)N1CCN(c2ccccn2)CC1	-5%
Cc1cc(NC(=O)Cc2ccccc2)no1	0%
Cc1cc(N2CCOCC2)nc2ccc(NC(=O)CCC(=O)N3CCC(C)CC3)cc12	102%
O=C(Nc1cccc(F)c1)c1ccc(S(=O)(=O)N2CCCC2)cc1	10%
Cn1c(-c2cccc(Br)c2)cnc1NCc1cccnc1	12%
Cc1ccc(S(=O)(=O)NC(C)(C)CSc2nnc(N)s2)cc1	-7%
O=C(C1CCCCC1)N1CC(=O)N2CCc3ccccc3[C@@H]2C1	11%[12.8 µM]
Cc1cccc(-n2c(O)c(C=NCCCN3CCOCC3)c(=O)[nH]c2=O)c1C	-10%
CCOC(=O)CS(=O)(=O)c1nc(-c2ccc(F)cc2)cc(C(F)(F)F)n1	6%
Cc1ccc(C)c(N2CCN(C(=O)C3CCN(c4nnc(N5CCCC5=O)s4)CC3)CC2)c1	126%
O=C1C(=O)N(Cc2ccc(Cl)c(Cl)c2)c2ccccc21	-3%
COc1ccc(N2CCN(C(=O)c3ccc(C)cc3Cl)CC2)cc1	45%
COc1ccc(NC(=O)Cn2cccc2)cc1Cl	-7%
CCCc1cc(C(=O)NCCc2ccccc2)no1	-10%
CN1CCN(c2ncc3nc(-c4cccs4)c(=O)n(Cc4ccc(F)cc4)c3n2)CC1	106%
CC[C@H]1CC[C@H]2[C@@H]3CC=C4C[C@H](OC(C)=O)[C@@H](N)C[C@@]4(C)[C@H]3CC[C@@]12C	7%[5.75 µM]
COC(=O)C(C(=O)N1CCN(C)CC1)C1CCCCCC1 (stereo not drawn)	3%
CCOc1ccc2[nH]cc(C(=O)O)c(=O)c2c1	0%
CN(C)Cc1ccccc1-c1cncnc1NCc1cccs1	2%
O=C1SC(c2ccccc2)=N/C1=C/c1ccco1	-8%
CN(C)c1ncnc2ccc(-c3cccc(C#N)c3)cc12	?
O=C(c1ccc(F)cc1F)N(Cc1ccccn1)Cc1ccco1	17%
O=C(CN1CCN(Cc2ccc(Cl)cc2)C1=O)N1CCC2(CC1)OCCO2	29%
O=C(Cc1ccccc1)N1CCN(C2CCCC2)CC1	2%
O=C(CN(C1CCCCC1)S(=O)(=O)c1ccc(Cl)cc1)NCc1cccnc1	59%
CCOc1cc(-c2c(C)c(C)nc(N)c2C#N)ccc1O	-16%
CCOC(=O)c1cnn(-c2cc(C)nc3c(-c4ccccc4)cnn23)c1N	-13%
COc1ccc(C(CC(=O)N2CCC3(CC2)OCCO3)NS(=O)(=O)c2ccc(C)cc2)cc1 (stereo not drawn)	59%

Gathered by group: the compounds so far with a CF3 group.
SMILES	AmpC nodet inh
CCN1CCN(Cc2c(O)ccc3c(=O)c(-c4ccc(OC)c(OC)c4)c(C(F)(F)F)oc23)CC1	52%
CCN(c1ccc(C(O)(C(=O)OC)C(F)(F)F)cc1)S(=O)(=O)c1ccccc1 (stereo not drawn)	-3%
COc1ccc(C(=O)N2CCC[C@@]3(CCN(Cc4cc(C(F)(F)F)cc(C(F)(F)F)c4)C3)C2)cc1	30%
O=C(c1cc2nc(-c3ccccc3)cc(C(F)(F)F)n2n1)N1CCCC1	26%
CCOC(=O)CS(=O)(=O)c1nc(-c2ccc(F)cc2)cc(C(F)(F)F)n1	6%

New compounds follow
SMILES	AmpC nodet inh
Cc1occc1C(=O)Nc1ccc(S(=O)(=O)N2CCN(C)CC2)cc1	6%
CC(C)CC1(C)NC(=O)NC1=O (stereo not drawn)	-14%
COc1ccc(S(=O)(=O)Nc2ccccc2OC)cc1C	3%
O=C(O)CCCC(=O)NCCCc1ccccc1	-1%
COc1cc(NS(=O)(=O)c2cc(C)ccc2OC)c(OC)cc1Cl	29%
CC(=O)c1c(C)nn(C(C)CC(=O)O)c1C (stereo not drawn)	-8%
NS(=O)(=O)c1ccc(N=C2C(=O)Nc3ccccc32)cc1	18%[5.75 µM]
Cc1cc2oc(C(=O)Nc3c(C)n(C)n(-c4ccccc4)c3=O)c(C)c2cc1C	36%
Cc1cc(C)c(C#N)c(SCC(=O)c2cccs2)n1	-7%
COc1ccc(C2C(C(=O)N3CCN(c4ccc(OC)cc4)CC3)c3ccccc3C(=O)N2C)cc1 (stereo not drawn)	109%
